Compound activity deposited in PubChem BioAssay by National Center for Advancing Translational Sciences (NCATS).
TRPV1 PAM: human TRPV1 potentiation; Q8NER1; TRPV1-expressing cells, Fluo-8 calcium influx, capsaicin EC20 potentiation; host cell line not named in the record; control for the full effect not named in the record; potentiation, % at 8.33 µM; hit rate 0.02% among 320,000; AID 540277; active means potentiation above 80%; inconclusive means 30% to 80%; inactive means below 30%; also: 0% is about no effect
Target sequence (Q8NER1 whole entry, looked up): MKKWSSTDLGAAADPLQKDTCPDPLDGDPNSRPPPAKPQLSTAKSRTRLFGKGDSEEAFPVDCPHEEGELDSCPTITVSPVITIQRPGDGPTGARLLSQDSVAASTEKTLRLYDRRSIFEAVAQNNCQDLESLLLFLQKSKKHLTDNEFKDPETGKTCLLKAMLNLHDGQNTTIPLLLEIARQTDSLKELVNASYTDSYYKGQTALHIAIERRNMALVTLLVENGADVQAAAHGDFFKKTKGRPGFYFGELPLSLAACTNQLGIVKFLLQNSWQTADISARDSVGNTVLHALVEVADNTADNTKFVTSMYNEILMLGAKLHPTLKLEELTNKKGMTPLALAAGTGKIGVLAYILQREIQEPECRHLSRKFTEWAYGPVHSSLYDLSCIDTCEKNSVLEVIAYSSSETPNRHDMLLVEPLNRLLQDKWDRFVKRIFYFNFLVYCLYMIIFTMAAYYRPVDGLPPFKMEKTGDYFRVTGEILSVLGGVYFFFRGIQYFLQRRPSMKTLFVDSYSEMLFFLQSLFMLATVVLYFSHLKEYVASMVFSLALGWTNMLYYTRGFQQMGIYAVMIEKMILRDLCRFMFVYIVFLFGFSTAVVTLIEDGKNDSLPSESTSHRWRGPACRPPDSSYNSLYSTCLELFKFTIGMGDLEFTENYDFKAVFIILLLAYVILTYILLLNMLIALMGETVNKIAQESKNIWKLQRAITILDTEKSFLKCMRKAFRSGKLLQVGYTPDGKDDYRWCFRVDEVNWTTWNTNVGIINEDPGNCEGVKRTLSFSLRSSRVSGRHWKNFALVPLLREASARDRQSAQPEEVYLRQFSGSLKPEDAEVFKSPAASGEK
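Cells expressing TRPV1 were dye-loaded with Fluo-8 and read kinetically: 10 s baseline, 3 min after compound (agonist portion), then 2 min after EC20 capsaicin (allosteric enhancer portion). Calcium-bound dye fluorescence at 480/520 nm.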
gsp antag: antagonists of gsp mutant (McCune-Albright syndrome); gsp-mutant cells, cAMP HTRF, 30 min; control for the full effect not named in the record; Potency, µM (top dose mostly 76.9 µM), for inactives: at the top dose activity change, negative = inhibition, hits mostly inhibitors; hit rate 0.4% among 340,000; active = falling curve of any shape with a large fitted effect; inconclusive = falling curve, mostly with a smaller effect; inactive = flat or rising curve; cell line not stated here;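 also: intracellular cAMP measured with PDE inhibitor Ro 20-1724 present during compound exposure; potency is read from the fitted curve at half-maximal effect; % is scaled to controls: 0 for no effect and ±100 for the full control effect; nearly all actives have a fitted effect of over 65% in size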
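HTRF cAMP measurement after 30 min RT detection following 30 min, 37C compound treatment alongside […] (added as 300 uM solution) in G418-selected cells seeded at 2000/well and grown 16–24 h.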
Sfp PPTase inh: inhibitors of Bacillus subtilis Sfp phosphopantetheinyl transferase | Q9F4F7 | Biochemical Sfp PPTase activity, qHTS | Potency, µM, for inactives: max response, negative = inhibition, actives largely listed as inhibitors | hit rate 3.5% among 310,000; active = well fitted inhibition curve with a large enough effect; inconclusive = small, poorly fitted or top-dose-only effect, or another doubt; inactive = no such curve, though single readings can be large or run the other way;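 also: the enzyme is Sfp with the accession as filed and its product quenches rhodamine fluorescence; potency is read from the fitted curve at half-maximal effect; 0% = enzyme reaction without inhibitor and -100% = no enzyme wells; top concentration of the series not given in the record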
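Fluorescence-quenching assay: 15 nM Sfp-PPTase preincubated 15 min at room temperature with compound, then 5 uM rhodamine-CoA and 12.5 uM BHQ-2-labelled YbbR peptide added. Fluorescence (ex 525/em 598 nm) read at start and after 30 min; difference gives rate.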
D2 PAM: human D2 receptor positive allosteric modulation; P14416; DiscoveRx D2 beta-arrestin cells, luminescence, 90 min; 100% = 57 uM dopamine signal; potentiation, % (concentration not given with the values); hit rate 0.23% among 360,000; AID 624464; active = potentiation of 50% or more; inconclusive = 30% to 50%; inactive = 30% or less;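 also: compound concentration not given in the record; tested on top of an EC20 dose of dopamine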
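PathHunter beta-arrestin assay in DiscoveRx D2 cells. Compounds were added with an EC20 of dopamine (50 nM final) for 90 min at 37 deg C. Luminescence was read 1 h after detection reagent, with 57 uM dopamine as the EC100 control.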
ClpP mod: qHTS Assay for Activators of ClpP. ATP-dependent Clp protease proteolytic subunit (Bacillus subtilis (strain 168)), P80244. purified B. subtilis ClpP, FRET peptide cleavage, 20 min. Potency, µM (highest dose often 57.5 µM), for inactives: at the highest dose activity change, negative = active. hit rate 1.9% among 340,000. AID 651965, 2013; active = well fitted falling curve with a large enough effect; inconclusive = small, poorly fitted or top-dose-only effect; inactive = no such curve, though single readings can be large or run the other way; also: potency is read from the fitted curve at half-maximal effect; the source files actives as falling curves though it sought activators and does not explain the sign; nearly all actives have a fitted effect of over 65% in size; many hits overshoot -100%
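ClpP 10 microg/mL final, pH 8 Tris/KCl buffer with BSA, glycerol, Tween-20; compound pinned in; FRET-FV substrate; RT 20 min; Ex320/Em430; ΔFRET vs ADEP 5.8 microM, DMSO, no enzyme.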
gsp agonist: activates gsp, the McCune-Albright syndrome mutation. Potency, µM (top dose mostly 76.9 µM), for inactives: at the highest dose activation (cAMP increase), hits mostly activators. gsp mutant cells, cAMP HTRF, 30 min; control for the full effect not named in the record. hit rate 0.13% among 340,000. AID 624287; active = well fitted activation curve with a large enough effect; inconclusive = small, poorly fitted or top-dose-only effect, or another doubt; inactive = no such curve, though single readings can be large or run the other way; cell line not stated here;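 also: phosphodiesterase inhibitor Ro 20-1724 added with compounds to block cAMP breakdown; potency is read from the fitted curve at half-maximal effect; nearly all actives have a fitted effect of over 60% in size; about a fifth of the inactives were tested at one dose only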
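Cells stably selected in G418 were plated at 2000/well, grown 16-24 hr, then given compounds in DMSO with the PDE inhibitor […] (300 uM solution added) for 30 min at 37C; cAMP was read by HTRF.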
Menin MLL FP FL: inhibitors of human menin-MLL interaction, wild-type MLL peptide. Fluorescence polarization, fluorescein-MLL peptide displacement from menin. FP activity change, % at 61.4 µM. 290,000 tested, under 10 active. AID 1766; inconclusive = falling polarisation curve, or a change in total fluorescence; inactive = total fluorescence flat and polarisation flat or rising; no compound was filed as active; the % refers to the polarisation; negative = inhibition;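 also: % of control where 0% means no effect; inhibitors lower the polarisation; unlabelled MLL peptide was the positive control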
* hit, by the source's call; ? = inconclusive; · = no result given; [ ] = dose if it differs, or a comment.

SMILES	TRPV1 PAM	gsp antag	Sfp PPTase inh	D2 PAM	ClpP mod	gsp agonist	Menin MLL FP FL
O=C1CC(c2ccccc2)CC(O)=C1C=NCCN1CCN(Cc2ccccc2)CC1 (stereo unspecified)	-2	-7%	4%	-21	·	2%	1.5
Cc1cc(C)cc(NC(=O)c2nnn(Cc3cc(C)ccc3C)c2N)c1	-9	-17%	13%	-1	-24%	-60%[inhibitor]	0.6
FC(F)(F)c1cccc(NC(=S)N2CCN(c3ccccn3)CC2)c1	-4	5%	18%	-7	·	-3%	-2.6
COc1ccc(C(=O)Nc2ccc(N3CCOCC3)cc2)cc1S(=O)(=O)N1CCOCC1	2	-5%	·	-11	0.6%	0%	·
CCOC(=O)C1CCN(C(=O)Nc2ccc3nc(-c4ccco4)c(-c4ccco4)nc3c2)CC1	4	-16%	14µM*	?	?	22%	?
COc1cccc(N2CCN(c3ccc4nnc(CCC(=O)Nc5ccccn5)n4n3)CC2)c1	1	-8%	2%	-2	-0.4%	-19%	-8.4
CSc1nc2ccc(NC(=O)COc3ccccc3F)cc2s1	·	-10%	·	-5	-1.0%	4%	·
Cc1ccc(N2C(=O)N(CC(=O)C(C)(C)C)c3ccccc3S2(=O)=O)cc1	-6	·	16%	·	·	·	1.6
CCOC(=O)[C@@H]1[C@H]2COc3ccc(Br)cc3[C@H]2N2C(=O)N(c3ccc(OC)cc3)C(=O)[C@]12C	·	-7%	·	-15	-2.2%	-40%[inhibitor]	·
CCCn1c(=O)c(C(=O)NCc2ccco2)c(O)c2ccccc21	22	4%	13%	-5	-1.9%	-106%[inhibitor]	0.4
Cc1cccc(C(=O)N/N=C/c2ccc(OCC(=O)N3CCCCC3)cc2)c1	-4	-6%	32%[activator]	-5	-3.5%	-2%	-0.2
Cc1cc(C(=O)OCC(=O)NCc2ccc(Cl)cc2Cl)c(C)o1	-16	-4%	·	1	-2.1%	-28%	·
COc1cccc(CNC(=O)CNC(=O)N2CC(=O)Nc3ccccc32)c1	4	11%	11%	-2	·	?	·
O=C(/C=C/c1cccs1)c1ccc(Br)cc1	-19	0%	-13%	5	-1.3%	9%	4.2
CC(=O)Nc1ccc(NC(=O)C2CCCCN2S(=O)(=O)c2ccc(C(C)(C)C)cc2)cc1 (stereo unspecified)	-10	-30%	-12%	8	·	9%	-3.1
COc1ccc(NS(=O)(=O)c2cc(NC(=O)c3ccco3)ccc2N2CCCCC2)cc1	1	8%	10%	-12	-6.0%	16%	4.1
COc1ccc(C(=O)N2CCCC(CO)C2)cc1OC1CCN(C(C)C)CC1 (stereo unspecified)	·	·	·	-10	-0.9%	-54%[inhibitor]	·
COc1ccc(CCNc2ncnc3c2oc2ccccc23)cc1OC	5	?	?	7	-0.5%	?	0.4
CCOc1ccc(CNS(=O)(=O)c2c(C)nc3sccn3c2=O)cc1OC	11	6%	25%	-1	1.8%	10%	1.5
CC(=O)Nc1ccc(C(=O)OCC(=O)NCc2ccc3c(c2)OCO3)cc1	·	-14%	·	-27	1.1%	-11%[15.4 µM]	·
CC1(C)CC(=O)c2sc(NS(=O)(=O)Cc3ccccc3)nc2C1	?	-3%	2%	2	-20%	4%	0.9
O=C1CCCN1CCCNc1ccc2nnc(CCC(=O)N3CCN(c4ccccc4)CC3)n2n1	3	1%	9%	1	0.6%	?	-2.7
O=C(CSc1ccccc1)Nc1ccc(S(=O)(=O)Nc2ncccn2)cc1	?	-22%	4%	1	·	37%[15.4 µM]	-0.5
O=C(NCc1cccnc1)c1cccc(NC(=O)c2ccco2)c1	1	-2%	12%	-12	-2.8%	-3%[15.4 µM]	4.1
Cn1c(=O)c(C(=O)CN2CCCCC2)c(N)n(Cc2ccccc2)c1=O	-5	17%	4%	-9	·	3%[15.4 µM]	-4.6
COc1cc(C(c2c(C)[nH][nH]c2=O)c2c(C)[nH][nH]c2=O)ccc1OS(=O)(=O)c1ccc(C)cc1	1	-4%	-7%	-6	-0.1%	24%	2.6
COc1ccc(NC(=O)CN(C)C(=O)C2=NN(c3ccccc3)C(=O)CC2)cc1	9	6%	·	3	1.3%	-3%	·
COc1ccc(CCC(=O)OCC(=O)N(C)c2c(N)n(Cc3ccccc3)c(=O)[nH]c2=O)cc1	-20	-6%	·	-10	1.6%	4%	·
COc1ccc(Cn2c3nc4ccccc4nc3c3c(=O)n(Cc4ccco4)cnc32)cc1	?	·	4.5µM*	·	·	·	6.4
C/C(=N/NS(=O)(=O)c1ccc(Cl)cc1)c1ccncc1	-3	?	-9%	2	0.1%	-54%[inhibitor]	3.1
COc1ccc(S(=O)(=O)NCc2cccnc2)cc1NC(=O)c1ccc(Cl)cc1	0	-17%	·	-22	0.4%	-3%[15.4 µM]	·
O=c1ccc2cc(S(=O)(=O)N3CCN(c4ccccc4)CC3)ccc2[nH]1	4	4%	8%	-4	-1.5%	?	0.5
CC(=O)c1cccc(NC(=O)C2C3C=CC(C3=C(c3ccccc3)c3ccccc3)C2C(=O)O)c1 (stereo unspecified)	-1	4%	14%	-6	-1.8%	10%	3.6
CCOc1ccc(-n2c(=O)c3sccc3n(CC(=O)NCc3ccco3)c2=O)cc1	?	5%	-9%	-13	-2.3%	-23%	0.1
CC1(C)CCc2cc(CN3CCN(c4ccccn4)CC3)ccc2O1	1	14%	7%	4	0.5%	-8%[15.4 µM]	7.1
CC(C)(C)NC(=O)NC(=O)CN1CCN(Cc2ccccc2)CC1	9	7%	-8%	-18	1.0%	0%	-5.4
CC(C)CC(=O)Nc1nnc(CCc2ccccc2)s1	23	18%	5%	-1	1.9%	-7%	5.5
Cc1ccccc1CSc1ccc(S(=O)(=O)N2CCCC2)cn1	·	6%	·	0	-1.1%	12%[15.4 µM]	·
CCN(CC)CCN1C(=O)C(=O)/C(=C(/O)c2ccc(OC(C)C)cc2)C1c1ccncc1 (stereo unspecified)	0	5%	17%	5	-0.5%	13%	-0.3
COc1ccc(OCC(=O)N2CCN(S(=O)(=O)c3ccc(Cl)cc3)CC2)cc1	-5	-4%	7%	1	0.9%	-15%	1.2
Cc1nc2ccccc2c(C)c1CC(=O)N(C)CC(=O)Nc1cccc(F)c1	13	-5%	·	-2	·	22%[15.4 µM]	·
CC1=CC(=O)CC(C)(C)[C@@]1(O)/C=C/[C@@H](C)O[C@@H]1O[C@H](CO)[C@@H](O)[C@H](O)[C@H]1O	·	2%	·	-21	-8.6%	·	·
COc1ccc(CCNC(=O)CCCCCNc2nc(=S)[nH]c3ccccc23)cc1OC	-3	-15%	?	-4	-1.4%	-4%[15.4 µM]	0.4
Cc1cc(NC(=O)CS(=O)(=O)Cc2ccccc2)no1	7	1%	17%	0	·	-18%	2.1
O=C(O)c1ccc(N/N=C/c2cccc(C(F)(F)F)c2)cc1	-2	-13%	3%	-6	-3.6%	24%	-1.1
Cc1ccnc(SC2CC(=O)N(c3ccc(Cl)cc3)C2=O)n1 (stereo unspecified)	-5	8%	10%	-33	-2.2%	2%	0.1
Cc1cccc(C)c1-n1c(SCC(=O)NCc2ccco2)nc2ccccc2c1=O	-17	-2%	6%	23	-0.7%	8%	5.4

Among those listed so far, nine have a furan ring, fused or not.
SMILES	TRPV1 PAM	gsp antag	Sfp PPTase inh	D2 PAM	ClpP mod	gsp agonist	Menin MLL FP FL
CCOC(=O)C1CCN(C(=O)Nc2ccc3nc(-c4ccco4)c(-c4ccco4)nc3c2)CC1	4	-16%	14µM*	?	?	22%	?
CCCn1c(=O)c(C(=O)NCc2ccco2)c(O)c2ccccc21	22	4%	13%	-5	-1.9%	-106%[inhibitor]	0.4
Cc1cc(C(=O)OCC(=O)NCc2ccc(Cl)cc2Cl)c(C)o1	-16	-4%	·	1	-2.1%	-28%	·
COc1ccc(NS(=O)(=O)c2cc(NC(=O)c3ccco3)ccc2N2CCCCC2)cc1	1	8%	10%	-12	-6.0%	16%	4.1
COc1ccc(CCNc2ncnc3c2oc2ccccc23)cc1OC	5	?	?	7	-0.5%	?	0.4
O=C(NCc1cccnc1)c1cccc(NC(=O)c2ccco2)c1	1	-2%	12%	-12	-2.8%	-3%[15.4 µM]	4.1
COc1ccc(Cn2c3nc4ccccc4nc3c3c(=O)n(Cc4ccco4)cnc32)cc1	?	·	4.5µM*	·	·	·	6.4
CCOc1ccc(-n2c(=O)c3sccc3n(CC(=O)NCc3ccco3)c2=O)cc1	?	5%	-9%	-13	-2.3%	-23%	0.1
Cc1cccc(C)c1-n1c(SCC(=O)NCc2ccco2)nc2ccccc2c1=O	-17	-2%	6%	23	-0.7%	8%	5.4

An unsorted share of the library; about 5.1% have a hit in one of these screens.
